Bioassay records: PubChem, National Center for Advancing Translational Sciences (NCATS)
D1 antag: antagonists of human D1 dopamine receptor | AID 504652 | activity change, negative = inhibition, % at 10 µM | actives 3.2% (n = 360,000) | P21728 | HEK293 TREx D1 cells, calcium flux, dopamine EC80; hits give low values; in the data active = activity change below about -30%; also: % is scaled to controls: 0 for no effect and ±100 for the full control effect
Target sequence (P21728 whole entry, looked up): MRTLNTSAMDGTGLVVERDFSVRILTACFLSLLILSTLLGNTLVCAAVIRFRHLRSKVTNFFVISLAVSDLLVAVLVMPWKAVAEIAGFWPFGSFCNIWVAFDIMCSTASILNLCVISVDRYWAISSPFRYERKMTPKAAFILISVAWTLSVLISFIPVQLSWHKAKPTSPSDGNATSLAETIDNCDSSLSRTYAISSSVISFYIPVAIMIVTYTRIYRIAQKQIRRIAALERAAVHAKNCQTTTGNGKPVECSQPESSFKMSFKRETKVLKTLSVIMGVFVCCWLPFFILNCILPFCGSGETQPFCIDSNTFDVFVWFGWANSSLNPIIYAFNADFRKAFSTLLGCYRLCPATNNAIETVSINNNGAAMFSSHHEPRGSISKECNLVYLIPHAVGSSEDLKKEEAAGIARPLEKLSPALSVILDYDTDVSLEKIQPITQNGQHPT
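Tetracycline-induced HEK293 Trex D1 cells, force-coupled to calcium, dye-loaded; compounds added and read 180 s, then EC80 dopamine added and calcium flux tracked kinetically another 180 s.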
D2 antagonist: antagonizes the human D2 dopamine receptor; P14416; HEK293 TREx D2 cells, calcium flux, dopamine EC80; inhibition, % at 10 µM; actives 2% (n = 340,000); AID 485344; in the data active = inhibition above about 30%; also: 0% is about no effect
Target sequence (P14416 whole entry, looked up): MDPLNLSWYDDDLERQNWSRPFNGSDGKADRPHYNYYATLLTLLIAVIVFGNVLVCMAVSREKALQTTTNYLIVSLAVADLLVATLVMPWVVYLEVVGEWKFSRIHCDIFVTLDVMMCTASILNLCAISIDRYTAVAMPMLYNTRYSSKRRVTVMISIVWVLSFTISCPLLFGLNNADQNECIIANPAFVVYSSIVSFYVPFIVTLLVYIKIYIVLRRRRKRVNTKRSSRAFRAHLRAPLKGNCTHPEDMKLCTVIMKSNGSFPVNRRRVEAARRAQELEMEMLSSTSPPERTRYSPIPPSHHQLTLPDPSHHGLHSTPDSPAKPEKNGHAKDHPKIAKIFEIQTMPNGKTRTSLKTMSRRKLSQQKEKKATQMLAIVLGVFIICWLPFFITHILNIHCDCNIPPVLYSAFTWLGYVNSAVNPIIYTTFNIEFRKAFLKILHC
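Compounds are added to dye-loaded, induced HEK293 T-REx cells coupled to calcium release via D2; after a 3 min kinetic read an EC80 dopamine stimulus is given and fluorescence is recorded for 3 more min.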
TRHR PAM: TRH receptor (human) allosteric enhancement. enhancement, % at 2 µM. actives 0.66% (n = 360,000). P34981. TRHR cells, fluo-8 calcium fluorescence, EC20 TRH enhancement; in the data active = enhancement above about 30%; also: 0% is about no effect
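Enhancer read-out: after compound pinning and an initial kinetic agonist-mode read, an EC20 of TRH (10 nM final) was injected and fluo-8 calcium signal (Ex 480/Em 530) followed at 1 s/cycle for 100 cycles in TRHR-expressing cells.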
TRHR ag: agonists of human TRH receptor. P34981. TRHR cells, calcium flux fluo-8, FDSS agonist mode. activation, % at 2 µM. actives 0.18% (n = 360,000). AID 493084; also: 0% is about no effect
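Read-out: compound-evoked intracellular calcium rise in TRHR cells, fluo-8 dye, kinetic FDSS fluorescence at 1 s/cycle following a 10-cycle baseline. Cells cultured overnight before dye loading (30 min–1.5 h, RT).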
D1 ag: activates the human D1 dopamine receptor. HEK293 T-REx D1 cells, calcium flux, agonist mode. P21728. activation, % at 2 µM. actives 1% (n = 360,000); also: 0% is about no effect
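Agonism was scored from calcium flux recorded over 180 s (1 read/s) after pintool compound addition, following a 10-cycle baseline. Cells were inducible force-coupled HEK293 TREx D1, plated overnight at 30 C and loaded with no-wash calcium dye.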
D2 agonist: agonists of human D2 dopamine receptor; P14416; HEK293 T-REx D2 cells, calcium flux agonist mode; activation, % at 2 µM; actives 0.53% (n = 340,000); AID 485358;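 active = activation over 3 SD above normal in the single-dose calcium agonist read, cut at about 30% in these data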; also: 0% is about no effect
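Tetracycline-induced HEK293 T-REx cells with force-coupled D2 receptor, plated overnight at 30 C, loaded with no-wash calcium dye. After a 10 s baseline, compound was pin-added and calcium flux read kinetically for 180 s; calcium rises flagged agonists.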
D2 potentiator: positively modulates the human D2 dopamine receptor allosterically; P14416; HEK293 T-REx D2, calcium flux, EC20 dopamine potentiation; potentiation, % at 10 µM; actives 0.34% (n = 340,000); AID 485347;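 active = potentiation over 3 SD above the plate norm, cut at about 30% in these data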; also: 0% is about no effect
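Using a no-wash calcium dye in inducible, force-coupled HEK293 Trex cells expressing D2, we tracked fluorescence each second for 180 s after compound, then for 180 s after EC20 dopamine to detect augmented signalling.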
D1 potentiator: potentiators of human D1 dopamine receptor | P21728 | HEK293 TREx D1 cells, calcium flux, dopamine EC20 potentiation | potentiation, % at 10 µM | actives 0.036% (n = 360,000); in the data active = potentiation above about 30%; also: 0% is about no effect
An asterisk follows results filed as active. Rule as the data show it, unless noted: active = activation above about 30%; inactive = the rest. Some of the compounds tested; the hit share may differ from the screen's.

`CCc1nc(SCC(=O)NCCc2ccccc2)c2c(=O)n(C)c(=O)n(C)c2n1` gave D1 antag -2, D2 antagonist 2, TRHR PAM -8, TRHR ag 0.0, D1 ag 1, D2 agonist -0.1, D2 potentiator 5 and D1 potentiator 3.
`S=c1[nH]nc(-c2c[nH]c3ccccc23)o1` gave D1 antag 0, D2 antagonist -4, TRHR PAM -1, TRHR ag 0.0, D1 ag 4, D2 agonist 0.7, D2 potentiator 9 and D1 potentiator 3.
Screening CCOC(=O)N1CCC(NC(=O)C2CCCN(c3nc4ccccc4o3)C2)CC1 (stereo not drawn) returned D1 antag -7, D2 antagonist 15, TRHR PAM -7, TRHR ag 1.1, D1 ag 0, D2 agonist 0.6, D2 potentiator 13 and D1 potentiator -4.
Screening CCOC(=O)c1ccc(NC(=O)CSc2nnc(-c3cccs3)n2C)cc1 returned D1 antag -27, D2 antagonist 25, TRHR PAM 0, TRHR ag -0.2, D1 ag 0, D2 agonist -0.4, D2 potentiator -7 and D1 potentiator -6.
Screening Cc1c(C#N)c(N)nc2c3c(sc12)NC(=O)CC3c1ccc(Cl)cc1 (stereo not drawn) returned D1 antag 17, D2 antagonist 8, TRHR PAM 2, TRHR ag -1.1, D1 ag -1, D2 agonist 2.6, D2 potentiator 7 and D1 potentiator -2.
Screening Cc1nn(-c2ccccc2)c2[nH]c(=O)c(CNCCN3CCOCC3)cc12 returned D1 antag 6, D2 antagonist -23, TRHR PAM 5, TRHR ag 0.9, D1 ag 2, D2 agonist 1.0, D2 potentiator 11 and D1 potentiator -9.
Screening COc1ccccc1N1CCN(c2nc(C)nc3c2oc2ccccc23)CC1 returned D1 antag -7, D2 antagonist 5, TRHR PAM 0, TRHR ag 0.1, D1 ag 0, D2 agonist -1.8, D2 potentiator -6 and D1 potentiator 11.
COc1cccc(NC(=O)c2ccc(NS(=O)(=O)c3cccs3)cc2)c1 was read as D1 antag -13, D2 antagonist -24, TRHR PAM 5, TRHR ag 0.1, D1 ag 9, D2 agonist -1.2, D2 potentiator -2 and D1 potentiator -5.
Screening CC(C)(O)C(=O)NN(C(=O)c1ccccc1)c1ccc2ccccc2c1 returned D1 antag 3, D2 antagonist 9, TRHR PAM 12, TRHR ag -0.2, D1 ag 5, D2 agonist -1.5, D2 potentiator 18 and D1 potentiator -14.
Screening O=C(COc1ncnc2ccccc12)NCC1CCCO1 (stereo not drawn) returned D1 antag -8, D2 antagonist -4, TRHR PAM 1, TRHR ag 0.0, D1 ag 3, D2 agonist 3.5, D2 potentiator 7 and D1 potentiator -11.
O=C1CC(c2ccccc2)Cc2[nH]c(=O)c(C(=O)Nc3ccc(F)cc3)cc21 (stereo not drawn) was read as D1 antag 4, TRHR PAM -1, TRHR ag 0.9, D1 ag 1, D2 agonist 2.1, D2 potentiator 4 and D1 potentiator 0.
Screening CCN(CC)S(=O)(=O)c1cccc(C(=O)Nc2ccc(C#N)cc2)c1 returned D1 antag -20, D2 antagonist -2, TRHR PAM -1, TRHR ag 0.6, D1 ag 12, D2 agonist 0.0, D2 potentiator -4 and D1 potentiator -5.
Nc1ccc2c(c1)C(=O)N(CCCC(=O)O)C2=O was read as D1 antag 0, D2 antagonist -10, TRHR PAM 0, TRHR ag 1.2, D1 ag 3, D2 agonist 0.4, D2 potentiator -5 and D1 potentiator 2.
CCc1nnc(NC(=O)CSc2ccc(-c3ccc(-n4cccn4)cc3)nn2)s1 was read as D1 antag 3, D2 antagonist -3, TRHR PAM 3, TRHR ag -0.1, D1 ag -1, D2 agonist 2.6, D2 potentiator 5 and D1 potentiator 0.
`CC(C)CCn1c(=O)c2ccccc2n2c(CN3C(=O)NC4(CCC(C)CC4)C3=O)nnc12` (stereo not drawn) gave D1 antag 3, D2 antagonist 3, TRHR PAM -25, TRHR ag -0.4, D1 ag 0, D2 agonist 0.0, D2 potentiator -1 and D1 potentiator -1.

As a working copy, five of the compounds above:
Screening CCOC(=O)c1ccc(NC(=O)CSc2nnc(-c3cccs3)n2C)cc1 returned D1 antag -27, D2 antagonist 25, TRHR PAM 0, TRHR ag -0.2, D1 ag 0, D2 agonist -0.4, D2 potentiator -7 and D1 potentiator -6.
Screening Cc1c(C#N)c(N)nc2c3c(sc12)NC(=O)CC3c1ccc(Cl)cc1 (stereo not drawn) returned D1 antag 17, D2 antagonist 8, TRHR PAM 2, TRHR ag -1.1, D1 ag -1, D2 agonist 2.6, D2 potentiator 7 and D1 potentiator -2.
Screening Cc1nn(-c2ccccc2)c2[nH]c(=O)c(CNCCN3CCOCC3)cc12 returned D1 antag 6, D2 antagonist -23, TRHR PAM 5, TRHR ag 0.9, D1 ag 2, D2 agonist 1.0, D2 potentiator 11 and D1 potentiator -9.
Screening COc1ccccc1N1CCN(c2nc(C)nc3c2oc2ccccc23)CC1 returned D1 antag -7, D2 antagonist 5, TRHR PAM 0, TRHR ag 0.1, D1 ag 0, D2 agonist -1.8, D2 potentiator -6 and D1 potentiator 11.
COc1cccc(NC(=O)c2ccc(NS(=O)(=O)c3cccs3)cc2)c1 was read as D1 antag -13, D2 antagonist -24, TRHR PAM 5, TRHR ag 0.1, D1 ag 9, D2 agonist -1.2, D2 potentiator -2 and D1 potentiator -5.

Further results follow.
For Cc1sc2ncnc(SCC(=O)N3CCC(c4noc5ccc(F)cc45)CC3)c2c1C the results were D1 antag -26, D2 antagonist 1, TRHR PAM -1, TRHR ag -0.4, D1 ag 1, D2 agonist -0.4, D2 potentiator -6 and D1 potentiator -4.
Screening CC(C)(C)C(=O)C1=C(O)C(=O)N(c2ccccc2)C1c1ccccc1 (stereo not drawn) returned D1 antag 5, D2 antagonist 8, TRHR PAM -9, TRHR ag -1.0, D1 ag 0, D2 agonist -0.4, D2 potentiator 10 and D1 potentiator -4.
For CCOc1ccc(NC(=O)CSc2ccc(-c3sc(-c4ccccc4)nc3C)nn2)cc1 the results were D1 antag 6, TRHR PAM -5, TRHR ag 0.4, D1 ag 4, D2 agonist 0.3, D2 potentiator -4 and D1 potentiator 0.
`O=C(C1CC(=O)N(c2ccccc2)C1)N1CCCCCC1` (stereo not drawn) gave D1 antag 23, D2 antagonist 11, TRHR PAM 16, TRHR ag 0.5, D1 ag 2, D2 agonist 1.0, D2 potentiator 1 and D1 potentiator 0.
`CCOc1ccccc1NC(=O)c1cccc(N2C(=O)CCC2=O)c1` gave D1 antag -9, TRHR PAM -1, TRHR ag 0.1, D1 ag 0, D2 potentiator -8 and D1 potentiator 3.
`CC(=O)n1cc(C(C[N+](=O)[O-])SCCN)c2ccccc21` (stereo not drawn) gave D1 antag 8, D2 antagonist 1, TRHR PAM 5, TRHR ag 3.2, D1 ag 3, D2 agonist 2.3, D2 potentiator 1 and D1 potentiator -2.
`N#Cc1cn(CC(=O)N2CCCC2)c2ccccc12` gave D1 antag 14, D2 antagonist -4, TRHR PAM 14, TRHR ag -1.4, D1 ag 0, D2 agonist -0.5 and D1 potentiator 0.
`CCOC(=O)c1c(-c2ccccc2)nnn1-c1nc(OCC)nc(N2CCCCC2)n1` gave D1 antag -9, D2 antagonist 3, TRHR PAM 11, TRHR ag 0.1, D1 ag 0, D2 agonist -1.0, D2 potentiator 8 and D1 potentiator -2.
For O=C(O)c1ccccc1SCc1cn2cc(Br)ccc2n1 the results were D1 antag -7, D2 antagonist 3, TRHR PAM 0, TRHR ag 0.5, D1 ag 1, D2 agonist 0.8, D2 potentiator 4 and D1 potentiator 0.
COc1ccc2cc(Br)ccc2c1CC(=O)NCC1CCCO1 (stereo not drawn) was read as D2 antagonist -7, TRHR PAM -1, TRHR ag -0.7, D1 ag -1, D2 agonist -0.5, D2 potentiator -6 and D1 potentiator -5.
`CC(C)(C)C(=O)C1=C(O)C(=O)N(Cc2ccccc2)C1c1ccccc1Cl` (stereo not drawn) gave D1 antag 7, D2 antagonist 6, TRHR PAM -6, TRHR ag 0.0, D1 ag 0, D2 agonist 1.3, D2 potentiator 6 and D1 potentiator -5.
`Cc1cc(-c2csc(NC(=O)c3ccc(=O)[nH]c3)n2)c(C)n1Cc1ccco1` gave D1 antag -11, D2 antagonist 0, TRHR PAM 3, TRHR ag -0.2, D1 ag 2, D2 agonist 0.4, D2 potentiator -4 and D1 potentiator -4.
Screening COc1ccc(C(=O)Nc2nnc(-c3ccccc3)o2)cc1OC returned D1 antag 7, D2 antagonist 1, TRHR PAM 14, TRHR ag 0.3, D1 ag 0, D2 agonist -0.6, D2 potentiator -9 and D1 potentiator -5.
Screening CN(C)c1oc(-c2ccccc2)nc1C#N returned D1 antag 21, D2 antagonist -10, TRHR PAM -7, TRHR ag 0.8, D1 ag 2, D2 agonist 0.7, D2 potentiator -2 and D1 potentiator -1.
`COC(=O)Oc1ccc(/C=C/C(=O)OC(C)C)cc1OC(=O)OC` gave D1 antag -6, D2 antagonist 9, TRHR PAM 21, TRHR ag -0.2, D1 ag 5, D2 agonist 0.6, D2 potentiator 8 and D1 potentiator -7.
Screening Cc1c(C(=O)Nc2c(F)cccc2F)sc2ncn(CC(=O)N3CCCCC3)c(=O)c12 returned D1 antag -17, D2 antagonist -4, TRHR PAM 1, TRHR ag 0.6, D1 ag -1, D2 agonist 0.2, D2 potentiator 11 and D1 potentiator 1.
For Cc1cc(NC(=O)CSc2nc3c(c(-c4cccnc4)c2C#N)CCC3)no1 the results were D1 antag -24, D2 antagonist -26, TRHR PAM -4, TRHR ag -0.4, D1 ag 1, D2 agonist -0.2, D2 potentiator 13 and D1 potentiator 1.
For COc1ccc(OC)c(NC(=O)CSc2nc(N)c(-c3ccccc3)c(=O)[nH]2)c1 the results were D1 antag 17, D2 antagonist -1, TRHR PAM -3, TRHR ag -0.6, D1 ag 5, D2 agonist -0.3, D2 potentiator -13 and D1 potentiator 16.
For COc1ccc(-c2cc(-c3cccnc3)c(C#N)c(N)n2)cc1 the results were D1 antag 3, D2 antagonist -1, TRHR PAM -2, TRHR ag 0.1, D1 ag 1, D2 agonist 0.9, D2 potentiator -3 and D1 potentiator -10.
CN(CC(=O)Nc1cccc(F)c1)C(=O)c1cccnc1Sc1ccccc1 was read as D1 antag 7, D2 antagonist -3, TRHR PAM 4, TRHR ag -0.2, D1 ag 1, D2 agonist 0.3, D2 potentiator 0 and D1 potentiator -2.
Screening CCc1cc(C(=O)c2ccc(OC)cc2)c(NC(=O)COCC(=O)O)s1 returned D1 antag -19, D2 antagonist -4, TRHR PAM -3, TRHR ag -0.4, D1 ag 0, D2 agonist -1.3, D2 potentiator -1 and D1 potentiator -3.
Screening Cc1ccc(OCc2nnc(SCC(=O)Nc3cc(C)on3)n2C)cc1 returned D1 antag 12, D2 antagonist -3, TRHR PAM 2, TRHR ag -0.9, D1 ag 1, D2 agonist -0.9, D2 potentiator 27 and D1 potentiator -3.
Cc1nc2nc(SCC(=O)NC3CCC(C)CC3)nn2c(C)c1Cc1ccccc1Cl (stereo not drawn) was read as D1 antag -19, TRHR PAM 3, TRHR ag -0.4, D1 ag -4, D2 agonist 0.0, D2 potentiator -8 and D1 potentiator 2.
For O=S(=O)(c1ccccc1)N1CCN(c2cc(-c3ccccc3)nc3ncnn23)CC1 the results were D1 antag 27, D2 antagonist -14, TRHR PAM -2, TRHR ag -0.7, D1 ag 6, D2 agonist 0.6, D2 potentiator 4 and D1 potentiator -3.
